Screening results from PubChem.
NPYLR7 ag – agonists of mosquito NPYLR7 receptor, primary screen, cell-based, Aedes aegypti, calcium fluorescence, mosquito biting behavior; HEK293T NPYLR7/Galpha15, GCaMP6s calcium fluorescence; activation, % at 10 µM; actives 0.15% (n = 270,000); in the data active = activation above about 40%;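 also: 0% = vehicle and 100% = reference agonist at the receptor; some compounds past the cut are filed as inactive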
NPYLR7 ag max-min – further read-out of NPYLR7 ag, marked with its call; activation, %; measured here: Max-Min RFU normalised activation; some inactives read as strong as hits;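 span of the calcium signal over five minutes; 0% = vehicle and 100% = native peptide agonist; compound fluorescence can raise it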
* = called active by the depositor; & = joins results of further samples.

SMILES,NPYLR7 ag,NPYLR7 ag max-min
CSc1nnc(C)c(=O)n1COC(=O)c1cc([N+](=O)[O-])ccc1Cl,-1,-1
CCN1C(=O)/C(=C/c2ccc(-c3ccc(Cl)cc3)o2)N(CC)C1=S,-4,-5
COCCN(CCO)C(=O)Nc1ccc(N2CCCC2=O)c(F)c1,8,3
COc1cc(CCC(=O)Nc2nc(-c3cc(C)sc3C)cs2)cc(OC)c1OC,3,5
COCCCN(Cc1ccc(OS(C)(=O)=O)cc1)C(=O)Nc1ccc(C(F)(F)F)cc1,-7,-10
COCCN1CCN(C(=O)CC2C(=O)NCCN2Cc2cccs2)CC1 (stereo not given),1,-3
COc1ccc(NC(=S)NC2CC3CCC2C3)cn1 (stereo not given),13,21
Cc1ccc(C(=O)N2CCOC(COc3cccc(C(F)(F)F)c3)C2)c(Cl)n1 (stereo not given),4,1
NC(=O)c1cccc(CC2CCN(C(=O)CCOc3ccccc3)C2)c1 (stereo not given),3,0
O=C(NCCS(=O)c1c(-c2ccc(F)cc2)[nH]c2ccccc12)C(=O)c1c[nH]c2ccccc12 (stereo not given),-3,-4
Cc1c(C(=O)NCc2ccccc2)sc(=O)n1Cc1cccc(F)c1,11,4
COC(=O)c1ccccc1N/C=C(\C#N)c1nc2ccccc2s1,-5,-8
CC(C)CNC(=O)c1ccc(S(=O)(=O)N(C)C)cc1,7,5
COc1cc(C=NN2CCCCC2)cc(OC)c1O,21,19
O=C(Oc1ccc(N(C(=O)c2ccncc2)S(=O)(=O)c2ccc(Cl)cc2)cc1)c1ccncc1,3,0
COc1ccc(C(=O)N2CCCC(OCc3ccc(F)cc3)C2)cc1 (stereo not given),9,5
COC(=O)N1CCN(CCNC(=O)c2cn(C)nn2)CC1,1,-2
FC(F)(F)C1CN(c2nc3ccccc3s2)CCO1 (stereo not given),6,-3
COc1ccc(C(CNC2CC3CC=CC32)N(C)C)cc1OC (stereo not given),-3,-1
Cc1onc(-c2c(Cl)cccc2Cl)c1C(=O)Nc1cccc(-c2cccc(-c3ccc(F)cc3)n2)c1,3,1
CCOc1c(Cl)cc(C=CC(=O)N2CCC(C(=O)Nc3ccc4c(c3)OCO4)CC2)cc1OC,-1,16
Cc1cc(C)c(/C=C(\C#N)c2nn(CCO)c(N)c2C#N)cc1C,3,2
CCOCCn1c(SCC)nc2c1c(=O)[nH]c(=O)n2C,10,5
c1ccc(N=c2scc(-c3cccs3)n2N=C2CCCC2)cc1,-10&2,-11&1
O=C1c2ccccc2C(=O)N1CN(C(=O)C(F)(F)F)c1ccc(I)cc1,-2,-5

Seven compounds picked at random from the list so far, as already listed:
SMILES,NPYLR7 ag,NPYLR7 ag max-min
COc1ccc(C(=O)N2CCCC(OCc3ccc(F)cc3)C2)cc1 (stereo not given),9,5
CCOc1c(Cl)cc(C=CC(=O)N2CCC(C(=O)Nc3ccc4c(c3)OCO4)CC2)cc1OC,-1,16
COCCN1CCN(C(=O)CC2C(=O)NCCN2Cc2cccs2)CC1 (stereo not given),1,-3
Cc1cc(C)c(/C=C(\C#N)c2nn(CCO)c(N)c2C#N)cc1C,3,2
O=C(NCCS(=O)c1c(-c2ccc(F)cc2)[nH]c2ccccc12)C(=O)c1c[nH]c2ccccc12 (stereo not given),-3,-4
CCOCCn1c(SCC)nc2c1c(=O)[nH]c(=O)n2C,10,5
COc1ccc(C(CNC2CC3CC=CC32)N(C)C)cc1OC (stereo not given),-3,-1

Later entries
SMILES,NPYLR7 ag,NPYLR7 ag max-min
O=C(O)CC1SC(=NN=Cc2ccccc2)NC1=O (stereo not given),1,4
CC(c1ccon1)N(C)Cc1c(C(=O)N(C)CCc2ccccc2)nc2sccn12 (stereo not given),-3,10
COc1ncccc1C(=O)Nc1c(C)nn(C(C)C)c1C,8,5
CCOC(=O)C1CCCCN1CC(=O)N1N=C(c2ccc(C)c(C)c2)CC1c1cccn1C (stereo not given),-1,10
Cc1ccc(-n2ncc3c(=O)n(NC(=O)COc4ccccc4C)cnc32)cc1,1,-1
Cc1nc(-n2nc(-c3cccs3)cc2NC(=O)CCC2CCCC2)[nH]c(=O)c1C,-1,-3
CN(Cc1ccccc1)C(=O)CSc1ccc(S(=O)(=O)N2CCOCC2)cn1,4,0
C=CCOc1ccc(C2N3CC4([N+](=O)[O-])CN2CC([N+](=O)[O-])(C3)C4(C)C)cc1 (stereo not given),1,1
COc1ccc(C(O)c2ncc(-c3ccc4ccccc4c3)[nH]2)cc1F (stereo not given),-3,-4
Cc1ccsc1CNC(=O)c1sc(S(N)(=O)=O)cc1C,13,9
CC(C)(Cc1c[nH]c2ccccc12)NC(=O)Nc1cc(F)ccc1F,-8,-11
CN(C)c1ccc(NC(=O)c2cccs2)cc1CN(CC1CCCO1)C(=O)c1ccco1 (stereo not given),1,10
CCCCN1CCCC1CNC(=O)c1cc(C#N)c2ccccc2c1OC (stereo not given),-4,-7
CCc1cn[nH]c1C1CCCN(C(=O)c2cc(C)n3nc(C)cc3n2)C1 (stereo not given),-1,5
COc1ncccc1-c1cc2nc(NCCCN(C)C)n(C)c(=O)c2s1,6,3
CC(C)C(OCC1CCCO1)C(=O)NC(C)C1CC2CCC1C2 (stereo not given),-1,-2
CCC(=O)N1CCC(n2c(=O)oc3cc(C)ccc32)CC1,3,1
CNCCNC(=O)c1cnc(N(C)C)nc1C,8,2
CCCCCCn1c2ccc(Br)cc2c2nc3ccccc3nc21,-2,-6
OC12CC3CC(C1)C(N1CCN4CCCC4C1)C(C3)C2 (stereo not given),3,0
Cn1nc([N+](=O)[O-])nc1Oc1ccccc1F,-1,-3
COc1nc(-c2ccc(C)cc2)n(-c2ccc(NC(=O)c3c(OC)cccc3OC)cc2)n1,-2,-1
C=CCN=CC1=C(O)CCCC1=O,6,3
CCc1cc(-c2ccccc2CO)ccc1NC(C)=O,4,3
CC1CC(C)CN(c2nc3c(c(=O)[nH]c(=O)n3C)n2CCSc2ncccn2)C1 (stereo not given),3,-1

Reprinted from the part before: six compounds, then new ones.
SMILES,NPYLR7 ag,NPYLR7 ag max-min
OC12CC3CC(C1)C(N1CCN4CCCC4C1)C(C3)C2 (stereo not given),3,0
Cn1nc([N+](=O)[O-])nc1Oc1ccccc1F,-1,-3
COc1nc(-c2ccc(C)cc2)n(-c2ccc(NC(=O)c3c(OC)cccc3OC)cc2)n1,-2,-1
C=CCN=CC1=C(O)CCCC1=O,6,3
CCc1cc(-c2ccccc2CO)ccc1NC(C)=O,4,3
CC1CC(C)CN(c2nc3c(c(=O)[nH]c(=O)n3C)n2CCSc2ncccn2)C1 (stereo not given),3,-1
CCNC(=O)OC1CCN(C(=O)c2ccc(C(C)(C)C)cc2)CC(=O)N(C)c2ccccc21 (stereo not given),7,13
O=C(CC(c1ccc(Cl)cc1)c1c[nH]c2ccccc12)N1CCC(n2c(=O)[nH]c3ccccc32)CC1 (stereo not given),-1,0
COC(=O)c1ccc(-c2noc(C[C@@H]3O[C@H](CNC(=O)NC(C)C)[C@@H](O)[C@H]3O)n2)cc1,-9,-17
COc1ccc(-c2ccc(OCCNS(=O)(=O)c3ccc4ccccc4c3)nn2)cc1,10,6
O=C(O/N=C1\CCCc2nonc21)C(F)(F)F,1,0
O=C(c1cccc(Br)c1)N(CC(=O)N1CCc2sccc2C1c1ccc(Cl)cc1Cl)Cc1ccc(F)cc1 (stereo not given),-1,-7
COC(=O)c1sc(N2C(=O)C(O)=C(C(=O)c3ccc(C)o3)C2c2ccc(F)cc2)nc1C (stereo not given),0,-1
COc1ccc(-c2cc(C(=O)Nc3ccc(C)c(C)c3)n(-c3ccccc3Cl)n2)c(OC)c1,-4,-4
O=C(c1cc(COc2c(F)cccc2F)on1)N1CCOCC1CO (stereo not given),16,4
CN(C(=O)c1ccc(S(=O)(=O)NC(C)(C)C)o1)c1ccccc1,8&-2,4&-5
COc1cc(C)c(S(=O)(=O)Cc2ccc(NS(C)(=O)=O)cc2)cc1OC,5,4
Cc1ccccc1NC(=O)C1CC=CCC1C(=O)N1CCN(c2ccccn2)CC1 (stereo not given),-5,-9
CC(=O)Nc1ccc(OCC(=O)N2CCN(S(C)(=O)=O)CC2)cc1,5,3
COc1cc(CN2CCN(Cc3cccc(C(F)(F)F)c3)CC2CCO)cc(OC)c1 (stereo not given),2,-2
Cn1cnnc1C1CCN(CN2C(=O)NC3(CCCCc4ccccc43)C2=O)CC1 (stereo not given),1,1
CC(C)c1cccc(C(C)C)c1NC(=O)N1CCSC1c1ccc(Cl)cc1Cl (stereo not given),17,23
NC(=O)C1Cc2cc(S(N)(=O)=O)ccc2O1 (stereo not given),10,8
CCc1ccc(OCC(=O)ON=C(N)c2cccc(C)c2)c(Br)c1,-11,-18
CC(c1ccc(S(N)(=O)=O)cc1)N(C)Cc1ccccc1Cl (stereo not given),6,2
COC(=O)COC1C[C@](OCc2ccccc2F)(C(=O)NCCN2CCOCC2)C[C@H]2OC(C)(C)O[C@@H]12 (stereo not given in full),3,3
COCCn1c(=NC(=O)C2=COCCO2)sc2cc(S(N)(=O)=O)ccc21,-1,-3
Cc1cc(NC(=O)CSc2nnnn2-c2ccccc2)ccc1Br,3,3
CC(=O)Nc1ccccc1NC(=O)CN(C)CCC1CCCCO1 (stereo not given),2,2
O=C(CSc1nc2c(cnn2CCO)c(=O)[nH]1)Nc1cccc(C(F)(F)F)c1,3,2
CC(C)CCN(Cc1nc2scc(-c3ccc(Cl)cc3)c2c(=O)[nH]1)CC(O)COCC(C)C (stereo not given),11,10
Cc1ccc(C)c(NC(=O)Cn2c(=O)n(Cc3ccc4c(c3)OCO4)c(=O)c3oc4ccccc4c32)c1,-6,-9
CCN(CC)C(=O)Oc1ccc2c(ccn2Cc2ccccc2OC(F)(F)F)c1-c1ccc(OC)cc1,6,-4
Fc1ccc2nc(C3CCCN3Cc3cc(-c4ccccn4)no3)[nH]c2c1 (stereo not given),6,4
CCOC(=O)C1CCCCN1Cc1ccc(O)c([N+](=O)[O-])c1 (stereo not given),-1,-1
CCN(CC)c1nc2n(c(=O)n1)CCO2,4,7
CC(=O)c1cccc(NC(=O)Nc2ccc3nc(Cc4ccccc4)nn3c2)c1,5,-2
Cc1nn(C)cc1C(C)Nc1nc2nonc2nc1N1CCCCC1 (stereo not given),19,6
COCCNC(=O)Cn1nc2c(c1NC(=O)c1cccs1)CSC2,-6,0
CC(Sc1nc2sccc2c(=O)[nH]1)C(=O)NC(=O)NC(C)(C)C (stereo not given),2,-7
COCCn1c(C)cn2c3c(=O)n(CC(C)C)c(=O)n(C)c3nc12,-1,-4
CCOc1ccc(NC(=O)N(Cc2ccc(OS(=O)(=O)c3cccc(C(F)(F)F)c3)cc2)Cc2ccco2)cc1,10,8
Cc1csc(NC(=O)c2ccc(NC(=O)c3ccco3)cc2)n1,5,1

The list is partial. The share of hits here may be higher or lower than overall.
